Compound activity: PubChem BioAssay, National Center for Advancing Translational Sciences (NCATS)
gsp ag: gsp mutant agonism; gsp mutant cells, cAMP HTRF, 30 min; control for the full effect not named in the record; Potency, µM (doses to about 76.9 µM), without a hit: at the highest dose activation (cAMP increase), hits mostly activators; actives 0.13% (n = 340,000); active = well fitted activation curve with a large enough effect; inconclusive = small, poorly fitted or top-dose-only effect, or another doubt; inactive = no such curve, though single readings can be large or run the other way; cell line not stated here;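 also: phosphodiesterase inhibitor Ro 20-1724 added with compounds to block cAMP breakdown; potency is read from the fitted curve at half-maximal effect; nearly all actives have a fitted effect of over 60% in size; about a fifth of the inactives were tested at one dose only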
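Cells stably selected in G418 were plated at 2000/well, grown 16-24 hr, then given compounds in DMSO with the PDE inhibitor […] (300 uM solution added) for 30 min at 37C; cAMP was read by HTRF.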
Sfp PPTase inh: inhibitors of Bacillus subtilis Sfp phosphopantetheinyl transferase; Q9F4F7; Biochemical Sfp PPTase activity, qHTS; Potency, µM, for the others: max response, negative = inhibition, usual class: inhibitors; actives 3.5% (n = 310,000); AID 1490; active = well fitted inhibition curve with a large enough effect; inconclusive = small, poorly fitted or top-dose-only effect, or another doubt; inactive = no such curve, though single readings can be large or run the other way;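 also: the enzyme is Sfp with the accession as filed and its product quenches rhodamine fluorescence; potency is read from the fitted curve at half-maximal effect; 0% = enzyme reaction without inhibitor and -100% = no enzyme wells; top concentration of the series not given in the record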
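Fluorescence-quenching assay: 15 nM Sfp-PPTase preincubated 15 min at room temperature with compound, then 5 uM rhodamine-CoA and 12.5 uM BHQ-2-labelled YbbR peptide added. Fluorescence (ex 525/em 598 nm) read at start and after 30 min; difference gives rate.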
gsp antagonist: antagonizes gsp, the McCune-Albright syndrome mutation | gsp-mutant cells, cAMP HTRF, 30 min; control for the full effect not named in the record | Potency, µM (top dose mostly 76.9 µM), inactives show at the top dose activity change, negative = inhibition, hits mostly inhibitors | actives 0.4% (n = 340,000); active = falling curve of any shape with a large fitted effect; inconclusive = falling curve, mostly with a smaller effect; inactive = flat or rising curve; cell line not stated here;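 also: intracellular cAMP measured with PDE inhibitor Ro 20-1724 present during compound exposure; potency is read from the fitted curve at half-maximal effect; % is scaled to controls: 0 for no effect and ±100 for the full control effect; nearly all actives have a fitted effect of over 65% in size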
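Measurement of cellular cAMP by homogeneous time-resolved fluorescence following a 30 min compound exposure at 37C. The PDE inhibitor […] was present throughout; the assay buffer was DPBS with 0.05% BSA and 0.005% Tween 20.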
ClpP mod: qHTS Assay for Activators of ClpP. Potency, µM (top dose mostly 57.5 µM), for the others: top-dose activity change, negative = active. AID 651965, 2013. actives 1.9% (n = 340,000). purified B. subtilis ClpP, FRET peptide cleavage, 20 min. ATP-dependent Clp protease proteolytic subunit (Bacillus subtilis (strain 168)), P80244; active = well fitted falling curve with a large enough effect; inconclusive = small, poorly fitted or top-dose-only effect; inactive = no such curve, though single readings can be large or run the other way; also: potency is read from the fitted curve at half-maximal effect; the source files actives as falling curves though it sought activators and does not explain the sign; nearly all actives have a fitted effect of over 65% in size; many hits overshoot -100%
Target sequence (P80244 whole entry, looked up): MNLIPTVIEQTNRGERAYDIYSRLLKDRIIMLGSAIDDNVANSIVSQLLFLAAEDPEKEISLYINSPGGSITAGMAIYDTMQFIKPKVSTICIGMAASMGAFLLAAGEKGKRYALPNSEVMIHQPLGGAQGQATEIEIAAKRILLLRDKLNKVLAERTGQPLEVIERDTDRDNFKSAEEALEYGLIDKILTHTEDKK
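ClpP 10 microg/mL final, pH 8 Tris/KCl buffer with BSA, glycerol, Tween-20; compound pinned in; FRET-FV substrate; RT 20 min; Ex320/Em430; ΔFRET vs ADEP 5.8 microM, DMSO, no enzyme.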
Menin MLL FP FL: menin-MLL binding inhibition, fluorescein peptide. FP activity change, % at 61.4 µM. Fluorescence polarization, fluorescein-MLL peptide displacement from menin. 290,000 tested, under 10 active; inconclusive = falling polarisation curve, or a change in total fluorescence; inactive = total fluorescence flat and polarisation flat or rising; no compound was filed as active; the % refers to the polarisation; negative = inhibition;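 also: % of control where 0% means no effect; inhibitors lower the polarisation; unlabelled MLL peptide was the positive control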
D2 agonist: human D2 receptor agonism in beta-arrestin assay; P14416; AID 624465; actives 0.084% (n = 360,000); DiscoveRx PathHunter D2 beta-arrestin, luminescence, 90 min; 100% = 57 uM dopamine signal; activation, % (concentration not given with the values); in the data active = activation above about 40%; inconclusive = about 15% to 40%; inactive = below about 15%; also: compound concentration not given in the record; the text of the record calls up to 30% inactive
Target sequence (P14416 whole entry, looked up): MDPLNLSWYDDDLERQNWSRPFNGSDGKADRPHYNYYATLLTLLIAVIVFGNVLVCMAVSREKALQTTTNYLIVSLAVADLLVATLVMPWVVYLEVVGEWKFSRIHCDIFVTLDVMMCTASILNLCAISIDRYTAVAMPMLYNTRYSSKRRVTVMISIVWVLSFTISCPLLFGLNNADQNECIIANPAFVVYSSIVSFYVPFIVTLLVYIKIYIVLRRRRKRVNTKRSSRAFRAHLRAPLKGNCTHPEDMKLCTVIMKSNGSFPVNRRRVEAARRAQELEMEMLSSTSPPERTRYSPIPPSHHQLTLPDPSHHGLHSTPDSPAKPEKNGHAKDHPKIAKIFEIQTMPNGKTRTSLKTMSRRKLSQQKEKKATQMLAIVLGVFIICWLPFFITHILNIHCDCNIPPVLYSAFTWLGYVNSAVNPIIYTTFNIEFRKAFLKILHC
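DiscoveRx PathHunter D2 beta-arrestin cells (2,100/well) attached overnight, then compound-stimulated 90 min at 37 C in HBSS/10 mM HEPES/0.1% Tween-20 buffer; beta-galactosidase complementation read by luminescence after 1 h at ambient temperature. Dopamine 57 uM final (EC100) as control.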
PINK1 modulator: modulators of PINK1 expression; PINK1 immunofluorescence, high-content cytometry, 24 h; Potency, µM (top dose mostly 76.6 µM), without a hit: at the highest dose activation (PINK1 increase), hits mostly activators; actives 0.2% (n = 410,000); active = well fitted activation curve with a large enough effect; inconclusive = small, poorly fitted or top-dose-only effect; inactive = flat fitted curve, though single readings scatter; cell line not stated here;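 also: potency is read from the fitted curve at half-maximal effect; % of control where 0% means no effect; nearly all actives have a fitted effect of over 65% in size; a mitochondrial uncoupler was the plate control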
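PINK1 protein level read as immunofluorescence by microplate cytometer in a fixed, stained stable cell line after 24 h exposure to five compound concentrations, with CCCP as control.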
* = called active by the depositor; ? = inconclusive; / = no result given; & = joins results of further samples; [ ] = dose if it differs, or a comment.

SMILES	gsp ag	Sfp PPTase inh	gsp antagonist	ClpP mod	Menin MLL FP FL	D2 agonist	PINK1 modulator
CCCOc1ccc(-c2nnn(CC(=O)c3ccc4c(c3)OCCO4)n2)cc1	0.2%	4.6%	3.1%	-11.1%	-0.5	0.5	/
N#Cc1ccc(C(c2nnnn2Cc2ccccc2)N2CCCC2)cc1 (stereo not drawn)	-35.2%[inhibitor]	6.8%	-11.6%	1.6%	1.4	-3.4	-0.7%
Cc1ccc(-c2nnc(NC(=O)c3ccco3)o2)c(C)c1	-20.7%[15.4 µM]	/	-6.3%	-4.4%	/	-1.3	1.3%
C=C(C)CN(CC)C(=O)c1ccc(OC2CCN(S(=O)(=O)N(C)C)CC2)cc1	26.6%	-8.1%	-6.2%	0.6%	3.6	-0.4	-1.2%
CCOc1cc2[nH]c(=S)n(CCCN3CCN(C)CC3)c(=O)c2cc1OCC	12.6%	/	-12.6%	-3.4%	/	-3.8	0.3%
CCOC(=O)C1C(c2ccc([N+](=O)[O-])cc2)C2C(=O)NN=C2CC1(C)O (stereo not drawn)	24.7%	22.3%	6.9%	/	-1.8	-1.0	0.7%
O=C(OCC(=O)c1ccccc1Cl)C1=NN(c2ccccc2)C(=O)CC1	-1.6%[15.4 µM]	/	-0.6%	-31.0%	/	-6.8	0.0%
COC(=O)c1c(N)n(CCCN2CCOCC2)c2nc3ccccc3nc12	17.7%	10.6%	-2.5%	3.7%	4.4	0.5	2.5%
COc1ccc(N2CCN(c3ccc(S(=O)(=O)N(C(C)C)C(C)C)cn3)CC2)cc1	-1.4%	14.2%	-1.0%	/	-0.4	-2.8	9.6%
Cc1ccc(S(=O)(=O)NCCC(=O)OCC(=O)Nc2cccc(S(=O)(=O)NC3=NCCCCC3)c2)cc1	-1.3%[15.4 µM]	13.4%	-10.0%	0.9%	2.5	-7.2	-1.1%
O=C1c2ccccc2NC(c2ccc(Cl)cc2Cl)N1Cc1ccccc1 (stereo not drawn)	-10.8%	-4.5%	-12.5%	31.6µM*	1.2	-4.6	15.7%
Cc1nc(Nc2ncc(C(=O)Nc3c(C)cccc3Cl)s2)cc(N2CCN(CCO)CC2)n1	/	17.7%	/	-17.9%	7.4	/	-0.1%
Cc1ccc(CSc2nnc([C@@H]3CCCN3)o2)cc1	-23.7%	6.9%	4.8%	0.7%	5.3	-3.4	/
COC(=O)c1cnn2c1C(=O)N(Cc1cccs1)CC2	-8.5%	15.8%	11.6%	/	-1.5	-3.7	0.1%
Nc1nncn1C(=O)c1c(Cl)cccc1Cl	-6.2%	4.2%	8.4%	0.1%	-0.5	2.5	5.7%[38.3 µM]
CCc1ccc(C(C)NC(=O)C2CCCC2)cc1 (stereo not drawn)	-55.9%	8.4%	6.0%	/	-0.6	3.4	1.3%
Nc1nnc(SCC(=O)OCc2ccc(Cl)c(Cl)c2)s1	-9.5%	-1.0%	-6.1%	-1.0%	5.2	-2.4	4.9%
CC(NC(=O)COC(=O)CN1C(=O)NC2(CCCC2)C1=O)c1ccc(F)cc1 (stereo not drawn)	0.5%	/	7.0%	1.6%	/	-7.3	8.1%
Cc1ccc(NC(=O)c2nc[nH]c2C(=O)N2CCOCC2)c(C(=O)c2ccccc2)c1	14.2%	18.2%	4.6%	-2.3%	-0.9	1.0	-0.1%
COc1ccc2[nH]c3c(=O)n4c(nc3c2c1)SCC4	20.6%	5.4%	-0.5%	/	0.6	5.4	-1.5%
O=C(CNS(=O)(=O)c1cccc(Cl)c1)Nc1ccc(-c2nc3ccccc3s2)cc1	24.1%	5.2%	1.9%	-2.2%	5.5	-0.7	14.6%
COCCn1c(SCC(=O)Nc2cccc(OC)c2)nnc1-c1ccccc1	-50.9%[inhibitor]	18.5%	-1.6%	-3.3%	-8.3	-1.6	0.4%[38.3 µM]
Cc1ccccc1OCCNC(=O)CSc1ccc(C(F)(F)F)cc1[N+](=O)[O-]	3.2%	8.9%	-9.2%	-24.6%	-1.0	-1.7	-0.1%
Cn1cc(CN2CCC(n3nccc3NC(=O)c3ccccc3Cl)CC2)c2ccccc21	?	9.3%	-21.8%	-5.4%	-6.5	0.8	-1.6%
CC(C)N(Cc1nc(-c2ccccc2)no1)C(=O)c1ccc([N+](=O)[O-])cc1	-0.1%	15.8%	-4.7%	1.5%	-1.6	-1.2	1.7%
COc1ccc(NC(=O)/C=C/C(=O)O)c([N+](=O)[O-])c1	-6.4%[15.4 µM]	-13.3%	7.9%	/	2.9	2.5	-0.7%
O=C(O)CSc1nnc(Cc2ccccc2)n1-c1ccccc1	?	14.0%	8.7%	-5.1%	2.0	2.8	-1.4%
CCOc1ccc(-c2[nH]ncc2-c2ccc(Cl)cc2)c(O)c1	-3.3%	19.0%	-3.7%	-22.6%	-1.4	3.1	8.6%
COc1ccc(NC(=O)CN2CCN(C(C)=O)CC2)cc1S(=O)(=O)N1CCOCC1	-6.7%	/	12.0%	1.0%	/	-9.1	2.6%
Cc1ccc(C(=O)NCCc2ccccc2)cc1N1CCCC1=O	-20.4%	10.4%	8.9%	1.1%	/	8.1	0.6%
CCCCC(c1nnnn1CCOC)N1CCN(CC)CC1 (stereo not drawn)	?	11.6%	20.3%	-0.7%	6.3	-3.1	-0.7%
O=c1cc(-c2ccccc2)[nH]c2cc(F)ccc12	/	0.4%	14.9%	-16.4%	2.0	-4.4	6.1%
COc1ccc(OC)c(-n2c(-c3cc(-c4ccccc4)n[nH]3)n[nH]c2=S)c1	?	79.4µM*	-5.1%	-7.7%	0.1	-1.4	0.0%
CSCC(NS(=O)(=O)c1ccc(C)cc1)C(=O)O (stereo not drawn)	-14.9%[15.4 µM]	-20.7%	16.1%	/	0.8	-1.9	2.5%
Brc1ccc(-c2nc3ncccn3c2NC2CCCCC2)o1	-24.3%	-1.0%	-0.1%	-2.9%	2.9	1.4	0.9%
Cc1ccc(C(=O)NNc2ncnc3c2cnn3C)cc1	18.6%[15.4 µM]	14.3%	11.7%	/	3.1	-1.5	0.7%
CCN(CC)Cc1cc(NC2=NS(=O)(=O)c3ccccc32)ccc1OC(=O)C(C)C	-28.9%	6.7%	-0.1%	-0.2%	1.5	-5.4	2.1%
COc1ccccc1C1OCC(C)(C)CO1	12.8%	/	8.0%	/	/	-1.4	4.0%
CCC(SC1=NCCS1)C(=O)Nc1ccc(S(N)(=O)=O)cc1 (stereo not drawn)	8.8%	2.9%	3.6%	-2.2%	0.0	-5.1	-2.2%
CCNc1nc(Cl)nc(NCCOc2ccc(C)cc2)n1	-67.6%[inhibitor]	6.6%	10.8%	1.5%	/	3.5	0.2%

Arranged by the number under Menin MLL FP FL (rising): 3 of the compounds above.
| Structure | Menin MLL FP FL |
| --- | --- |
| C=C(C)CN(CC)C(=O)c1ccc(OC2CCN(S(=O)(=O)N(C)C)CC2)cc1 | 3.6 |
| Nc1nnc(SCC(=O)OCc2ccc(Cl)c(Cl)c2)s1 | 5.2 |
| CCCCC(c1nnnn1CCOC)N1CCN(CC)CC1 (stereo not drawn) | 6.3 |

Continued:
SMILES	gsp ag	Sfp PPTase inh	gsp antagonist	ClpP mod	Menin MLL FP FL	D2 agonist	PINK1 modulator
CC(=O)Nc1c(C(=O)C2CC2)oc2ccccc12	25.2%	18.2%	4.3%	-0.4%	3.0	-2.1	8.7%[38.3 µM]
COc1ccc2c(c1OC)C(=O)N(c1nccs1)C2	1.7%	18.8%	4.1%	?	-2.1	-1.7	-1.2%
O=[N+]([O-])c1cc(/C=N/OCc2c(Cl)cccc2Cl)ccc1N1CCOCC1	-7.3%	-10.8%	15.5%	-2.6%	3.5	-4.6	-5.2%[38.3 µM]
COC(=O)c1c(NC(=O)CSc2nnc(-c3ccco3)n2Cc2ccccc2)sc(C)c1C	1.0%	4.9%	-15.1%	-1.8%	10.6	0.0	-0.2%
CCN(CC)C(=O)c1ccc(COc2ccc(Cl)c(C)c2)o1	?	-6.8%	-27.9%	/	-0.9	-0.1	3.4%
CCc1ccc(N2CC(C(=O)Nc3ccccc3F)CC2=O)cc1 (stereo not drawn)	-9.1%	19.7%	-11.6%	-1.1%	2.1	-1.5	?
Cc1nc([N+](=O)[O-])cn1CC(=O)c1ccc(OC(F)(F)F)cc1	-2.3%[15.4 µM]	1.5%	2.5%	/	-0.1	-0.5	1.4%
CC(C)CC(=O)NC(c1cccs1)c1ccc2cccnc2c1O (stereo not drawn)	9.9%	7.9%	-10.2%	/	-0.2	0.9	2.1%
O=C(NC(=S)Nc1ccc(N2CCCC2)cc1)c1ccccc1[N+](=O)[O-]	-24.6%	2.5%	22.1%	-5.0%	9.3	-0.4	13.6%
CNC(=O)C1CC(=O)N(Cc2ccc3c(c2)OCO3)C(=Nc2ccc(F)cc2)S1 (stereo not drawn)	15.4%	5.7%	-4.2%	-5.0%	-0.4	-1.5	/
N#Cc1ccccc1OCC(=O)N1CCN(S(=O)(=O)c2ccc(Cl)cc2)CC1	0.2%	/	-4.2%	-2.6%	/	-2.5	3.1%
CCCNC(=O)C1CCC(CNS(=O)(=O)c2ccc3c(c2)CC(C)N3C(C)=O)CC1 (stereo not drawn)	10.7%	-4.9%	4.1%	-3.4%&-2.1%	/	-1.6	-2.4%&-1.5%
Cc1cc(C)nc(Nc2ccc(C)c([N+](=O)[O-])c2)n1	0.0%[15.4 µM]	11.4%	-27.5%	/	0.0	4.8	0.4%
Cc1ccc(CNC(=O)COC(=O)Cc2ccc(-c3ccccc3)cc2)cc1	-17.9%	3.4%	9.7%	2.5%	3.3	2.9	?
CC(OC(=O)c1ccco1)C(=O)NCc1ccc2c(c1)OCO2 (stereo not drawn)	9.9%	9.9%	-9.1%	-1.4%	-6.6	-6.1	-0.3%
CC(C)(C)c1ccc(NC(=O)COC(=O)c2ccc(CN3CCCC3=O)cc2)cc1	22.3%	/	0.7%	-5.0%	/	-2.4	-0.1%
O=S(=O)(c1ccccc1)C1(C2CC(c3ccccc3)=NO2)CC(O)C1 (stereo not drawn)	8.6%	3.7%	-0.7%	0.2%	-0.4	-1.4	0.7%
CC1CCC(C(C)C)C(OCC(O)CNC(C)(C)C)C1 (stereo not drawn)	-36.8%[inhibitor]	24.4%	18.0%	0.5%	-3.6	-3.1	4.6%
